Assay outcomes: PubChem BioAssay, several laboratories
MLL AF4-AF9 inh – blocks AF4 peptide binding to human AF9 | hit rate 0.47% among 350,000 | P42568 | AlphaScreen, biotin-AF4 peptide binding to FLAG-AF9 | inhibition, % at 10 µM | AID 651704;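 active means every replicate reaching a set inhibition limit, whatever the replicate mean, cut at about 25% in these data; inconclusive means mean inhibition reaches that limit but some replicates miss it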;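 further: 0% = plate neutral control median and 100% = total signal loss; the record names both 10 and 1 µM as test concentration; the first replicate is given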
Target sequence (P42568 whole entry, looked up): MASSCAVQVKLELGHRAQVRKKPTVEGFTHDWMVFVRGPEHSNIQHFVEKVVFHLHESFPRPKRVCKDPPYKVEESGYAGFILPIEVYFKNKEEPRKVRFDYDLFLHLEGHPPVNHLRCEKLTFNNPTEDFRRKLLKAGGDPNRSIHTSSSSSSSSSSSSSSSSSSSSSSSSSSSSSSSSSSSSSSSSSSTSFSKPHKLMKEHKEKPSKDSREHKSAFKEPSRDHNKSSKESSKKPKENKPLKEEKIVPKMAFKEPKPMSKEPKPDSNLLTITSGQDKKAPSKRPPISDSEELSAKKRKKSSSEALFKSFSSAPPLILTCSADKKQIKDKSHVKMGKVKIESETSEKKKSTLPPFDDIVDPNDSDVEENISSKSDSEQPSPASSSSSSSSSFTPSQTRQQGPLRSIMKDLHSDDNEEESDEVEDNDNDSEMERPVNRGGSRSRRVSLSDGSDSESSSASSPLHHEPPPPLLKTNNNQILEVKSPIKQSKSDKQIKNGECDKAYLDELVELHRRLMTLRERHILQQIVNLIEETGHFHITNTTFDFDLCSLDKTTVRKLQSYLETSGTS
FGF22 binding – binders of recombinant human FGF22 by thermal shift. Q9HCT0. calls only at 9.99 µM. hit rate 1.5% among 340,000. SYPRO orange fluorescence; percent of sucrose octasulfate shift, DMSO zero. AID 651658;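 active means melting point raised past a set limit in the mean and every replicate; inconclusive means no clear call; three in four hits are not shown here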
Target sequence (Q9HCT0 whole entry, looked up): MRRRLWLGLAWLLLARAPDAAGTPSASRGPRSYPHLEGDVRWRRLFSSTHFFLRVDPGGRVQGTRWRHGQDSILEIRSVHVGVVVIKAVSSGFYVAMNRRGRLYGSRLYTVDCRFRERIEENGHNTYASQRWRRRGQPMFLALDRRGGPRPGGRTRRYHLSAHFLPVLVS
Ecoli rRNA inh – inhibits bacterial ribosomal RNA function over humanized ribosomes; E. coli WT GFP vs humanized-ribosome RFP mutants, fluorescence, 24 h; hits give low values; DMSO median 0, no signal -100; AID 720706; hit rate 1.6% among 350,000; GFP signal change (wild-type ribosome), % (test concentration not listed);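 active means significant combined selectivity score with lowered wild-type GFP, culture density cut under 30%, mutant RFP and density less affected; inactive means any of these conditions unmet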; further: one replicate is shown; some compounds called inactive have numbers as strong as hits
UCH37 DUB inh – blocks the human deubiquitinase UCH37; inhibition, % (concentration not given with the values); Q9Y5K5; purified proteasome/UCH37, Ub-AMC cleavage fluorescence; hit rate 0.33% among 330,000;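 active means mean of two replicates above 20%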;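 further: 0% = compound-free wells with enzyme and 100% = wells lacking proteasome; stock transfer was 100 nL into about 20 µL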
Target sequence (Q9Y5K5 whole entry, looked up): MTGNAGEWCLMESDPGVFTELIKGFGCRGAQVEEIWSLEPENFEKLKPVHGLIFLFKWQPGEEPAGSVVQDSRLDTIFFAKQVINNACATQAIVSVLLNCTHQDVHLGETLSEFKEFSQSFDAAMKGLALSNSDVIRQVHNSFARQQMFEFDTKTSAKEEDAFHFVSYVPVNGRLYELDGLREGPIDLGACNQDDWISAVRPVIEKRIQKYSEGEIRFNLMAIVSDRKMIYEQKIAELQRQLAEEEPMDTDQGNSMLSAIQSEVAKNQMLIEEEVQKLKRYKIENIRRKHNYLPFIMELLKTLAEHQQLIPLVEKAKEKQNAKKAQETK
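System: Proteasome-associated human UCH37 deubiquitinase; Input: 0.15 nM proteasome in added enzyme buffer; Also added: Ub-AMC substrate from 1 µM stock; Incubation: 30 min compound-proteasome preincubation then 25 min substrate reaction, room temperature; Detection: fluorescence, ex 355 nm, em 460 nm; Read-out: % inhibition of Ub-AMC cleavage fluorescence; Benchmarks: no-proteasome and no-compound wells.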
Ecoli growth – inhibitors of Escherichia coli growth; OD600, 23 h; hits give low values; OD600 absorbance (concentration not given with the values); hit rate 0.21% among 330,000; AID 1053175;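 active means OD600 absorbance below the run mean of sample wells minus 3.6 SD, in any replicate, cut at about 0.56 in these data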;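 further: stock transfer was 300 nL into about 60 µL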
T cruzi repl – blocks replication of Trypanosoma cruzi; T. cruzi beta-gal in NIH3T3, luminescence, 90 h; inhibition, % (concentration not given with the values); hit rate 1.4% among 300,000; AID 1885;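 active means mean inhibition across valid replicates above about 55%, limit read from the data; inconclusive means mean below that limit but half or more replicates reach it; inactive means mean below it, under half of replicates reach it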;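 further: signal also drops with host cell toxicity which is not excluded here; 0% = plate median of DMSO wells and 100% = zero luminescence signal; higher percent means less beta-gal luminescence so fewer parasites; stock transfer was 50 nL into about 50 µL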
Beta apoptosis – beta cell apoptosis inhibition | INS-1E cytokine-induced death, ATP luminescence, 48 h; percent of positive-control rescue, neutral wells zero | protection from apoptosis, % (concentration not given with the values) | hit rate 0.8% among 300,000 | AID 435005;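 active means all replicates at 75% or more, or half of them and the mean; inconclusive means half reach 75% but not the mean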;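 further: 0% = cytokine-treated negative control wells and 100% = positive control rescue; higher means more ATP so stronger rescue from cytokine killing; wells of about 40 µL received 100 nL stock; the first replicate is given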
A1 inh – inhibitors of the anti-apoptotic protein A1, read as caspase activation | hit rate 0.066% among 330,000 | AID 2462 | caspase activation, % (concentration not given with the values) | MEF A1-2A-BIM cells, Caspase-Glo 3/7 luminescence, 3 h; percent of clofoctol response, vehicle zero;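 active means over half of replicate activation scores above 10%, or exactly half above 10 with the replicate mean above 10; inconclusive means replicate mean below 10 yet half the replicates above 10; inactive means over half of replicates below 10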;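 further: wells of about 30 µL received 50 nL stock; many hits fall short of the cut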
Ecoli rRNA inh OD600 – second read-out of Ecoli rRNA inh, no call of its own (marks repeat the call); OD600 change, %; measured here: OD600 growth;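 optical density of the mix in the first replicate; 0 = DMSO median and -100 = no signal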
Ecoli rRNA inh RFP – further read-out of Ecoli rRNA inh, marked with its call; RFP signal change, %; measured here: RFP humanized mutant strains;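 first replicate; 0 = DMSO median and -100 = no signal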
* marks the source's active call; other numbers are inactive results; i = inactive; u = inconclusive; x = no result given. Not all compounds are listed (hit frequency here may not be typical).

SMILES	MLL AF4-AF9 inh	FGF22 binding	Ecoli rRNA inh	Ecoli rRNA inh OD600	Ecoli rRNA inh RFP	UCH37 DUB inh	Ecoli growth	T cruzi repl	Beta apoptosis	A1 inh
COc1cccc(CNC(=O)CCC2CCCN(C(=O)c3ccoc3C)C2)c1 (centres undefined)	0.0	x	6.9	9.1	-2.2	1.8	0.707	3.5	-1.1	0.8
COC(=O)c1cc(OC)c(OC)cc1NC(=O)c1cccc(C)c1	-3.1	i	2.9	14.6	3.5	-230.5	0.676	20.2	3.0	0.2
Cc1ccc(NC(=O)COC(=O)Cn2ccc(C(F)(F)F)n2)cc1Cl	0.1	i	4.8	14.7	0.4	2.2	0.724	x	1.5	2.0
O=C(/C=C/c1ccccc1)NC(NC(=S)Nc1cc(Cl)ccc1Cl)C(Cl)(Cl)Cl (centres undefined)	-41.0	i	-18.2	-10.0	9.8	0.8	0.703	75.1*	10.6	-0.5
CC(C)(C)N(Cc1ccccc1)C(=O)COC(=O)c1cccc([N+](=O)[O-])c1	10.3	i	-11.9	-7.9	-1.0	-0.4	0.68	-9.9	-1.7	0.7
COc1cc(C2C=C(Nc3ccccc3)C(=O)N2c2ccccc2)ccc1O (centres undefined)	x	x	x	x	x	3.3	0.647	1.0	-0.8	0.2
COc1ccccc1NC(=O)CSc1nc2nc(C)cc(C)c2c(=O)[nH]1	x	x	x	x	x	-1.8	0.647	-6.9	-1.4	0.8
CC(C)CCOP(=O)(c1ccc(N(C)C)cc1)C(O)c1ccc(C(C)C)cc1 (centres undefined)	-0.7	i	4.5	6.4	-1.0	4.3	0.643	24.8	9.7	-0.5
Cc1cc(NS(=O)(=O)c2ccc(NC(=O)c3cc4cc(Br)ccc4oc3=O)cc2)no1	-2.2	i	18.4	7.2	-9.2	5.0	0.686	0.7	-0.5	0.0
CCCCN(C)CCCNC(=O)c1ccc(N2CCCC2=O)cc1	x	x	x	x	x	3.1	0.714	32.9	-3.1	-0.3
CC1(C)CC(=O)C2=C(C1)Nc1ccccc1NC2c1ccc([N+](=O)[O-])cc1 (centres undefined)	x	i	4.9	-2.5	-4.7	10.5	0.658	10.5	-2.7	-0.4
CC1(C)CC(C)(O)N(Cc2ccccc2)C(=S)N1 (centres undefined)	-4.0	i	-1.9	4.6	-6.1	3.5	0.675	-18.2	-10.7	0.2
O=[N+]([O-])c1ccccc1N(CC1CO1)S(=O)(=O)c1ccccc1 (centres undefined)	-0.2	i	11.2	4.2	3.3	-1.5	0.637	-13.7	x	-0.7
CC(CNC(=O)CCc1nnc2ccc(N3CCC4(CC3)OCCO4)nn12)c1ccccc1 (centres undefined)	-2.2	i	-0.1	0.6	-2.6	4.3	0.709	-6.5	-5.6	-0.4
COc1ccc(CNC(=O)CCS(=O)(=O)c2ccc3c(c2)NC(=O)C(C)S3)cc1 (centres undefined)	-3.5	i	4.4	9.4	4.9	1.3	0.662	6.6	-4.9	0.0
COc1ccccc1C(=O)Nc1cc(Cl)ccc1O	x	x	x	x	x	0.6	0.685	-1.5	-0.5	-1.2
Cc1cc(OCC(O)CN2CCN(CCO)CC2)ccc1C(C)C (centres undefined)	x	x	x	x	x	5.4	0.76	0.2	-1.5	-0.5
CC1CCCC(C)N1C(=O)Cc1ccccc1 (centres undefined)	-38.4	i	6.3	2.7	-1.8	-0.1	0.615	10.0	0.9	-0.9
CCC(O)C1CCN(Cc2cn(Cc3ccccc3)nc2-c2cc3ccccc3o2)CC1 (centres undefined)	4.1	i	1.5	0.1	9.1	6.0	0.716	28.3	2.3	0.0
CCCc1[nH]n(-c2ccc([N+](=O)[O-])cc2)c(=O)c1C=NCCc1c[nH]c2ccccc12	x	x	x	x	x	7.8	0.822	24.0	-6.3	-1.7
O=C(/C=C/Nc1ccccc1C(=O)O)c1cccs1	x	x	x	x	x	1.2	x	-12.7	-3.4	-2.4
N/C(=N\OC(=O)c1ccc(Br)cc1)c1cccc([N+](=O)[O-])c1	-11.8	i	11.3	9.4	-1.0	x	x	-2.0	-3.7	-0.7
COc1ccc(N/C(C)=C2/C(=O)C(=O)N(CCO)C2c2ccc(Br)cc2)cc1 (centres undefined)	x	x	x	x	x	11.0	0.702	-2.2	6.1	0.4
CCS(=O)(=O)N1CCN(S(=O)(=O)c2ccc(S(=O)(=O)NC3CC3)cc2)CC1	-1.2	i	6.0	20.3	1.5	3.2	0.713	-6.7	-0.6	-0.1
COCCNC(=O)C1CC(=O)N(C2CCCC2)C1 (centres undefined)	x	x	x	x	x	4.7	0.703	15.0	-1.1	-0.2

Following part.
SMILES	MLL AF4-AF9 inh	FGF22 binding	Ecoli rRNA inh	Ecoli rRNA inh OD600	Ecoli rRNA inh RFP	UCH37 DUB inh	Ecoli growth	T cruzi repl	Beta apoptosis	A1 inh
Cc1cc(C)cc(CSc2nnc(C)c(=O)[nH]2)c1	x	x	x	x	x	0.9	0.711	-2.4	1.3	-1.3
CCOC(=O)c1c(CN2CCOCC2)n(-c2ccccc2)c2cc(Br)c(O)cc12	x	x	x	x	x	1.3	0.66	8.6	x	0.3
O=C(COc1ccccc1[N+](=O)[O-])Nc1ccc2oc(=O)ccc2c1	-0.6	i	3.5	8.8	0.0	-0.9	0.688	-21.0	-0.4	u
CCN(CC)C(=O)Cn1cc(C(=O)C(=O)NCCc2c[nH]c3ccccc23)c2ccccc21	6.5	i	-17.2	-12.1	-0.5	3.2	0.596	28.7	-1.8	-0.5
Cc1ccccc1-c1nc(S(=O)(=O)c2ccc(Br)cc2)c(NCc2cccnc2)o1	-20.4	i	-7.3	-1.2	-2.7	-0.1	0.745	2.8	-15.0	-0.3
COc1ccc(CCn2c(C)cc(C(=O)CSc3nnnn3-c3ccccc3)c2C)cc1OC	-15.9	i	0.9	2.8	0.0	1.7	0.683	20.9	x	-1.2
COC(=O)CSc1nnc([C@H](CC(C)C)NC(=O)OC(C)(C)C)o1	x	x	x	x	x	3.0	0.713	2.8	-2.1	-0.5
CC1=C(C(=O)Nc2ccc(C(=O)NCCC(C)C)cc2)SCCO1	0.2	i	-7.8	-2.4	-1.4	1.3	0.686	-1.8	-8.9	0.3
COC(=O)CN1C(=S)N(c2ccc(F)cc2)C(=O)C1CC(=O)Nc1ccc(OC)cc1 (centres undefined)	x	i	-21.6*	-7.1*	3.8*	1.4	0.615	-5.2	-1.4	0.6
CCN1C(=O)C(CC(=O)Nc2ccc(OC)cc2)N(CCCN2CCN(c3ccc(F)cc3)CC2)C1=S (centres undefined)	3.4	i	-15.0	-15.7	3.6	x	x	15.8	7.2	0.2
COc1ccccc1N1CCN(C(=O)CNC(=O)c2cn(-c3ccccc3OC)c(=O)c3ccccc23)CC1	-2.2	x	1.8	-3.5	0.8	2.9	0.691	4.9	-6.4	-0.1
Cc1nc(N2CCN(C)CC2)c2c3c(sc2n1)CCCC3	-1.7	x	-5.0	1.4	-0.7	2.8	0.679	-0.4	-6.0	0.9
Cc1cccnc1NC1(C(F)(F)F)N=C2SCCN2C1=O (centres undefined)	-0.4	i	4.4	9.4	-3.2	1.0	0.628	-4.7	-4.9	0.2
Cc1ccc(-n2c(=S)[nH]c3c(oc4ccccc43)c2=O)cc1C	-28.4	i	-17.6	-13.7	-5.5	6.2	0.665	8.3	2.5	0.4
COc1ccccc1C(=O)NC(=O)CSc1nnc(C)s1	0.0	i	9.1	12.2	-0.7	0.6	0.695	17.2	x	0.1
Cc1c(Br)c([N+](=O)[O-])nn1CC(=O)Nc1ccc(C(C)C)cc1	-0.1	i	-1.7	-3.8	0.2	1.5	0.66	47.1	8.7	0.4
C/C(=N\NC(=O)c1cccc([N+](=O)[O-])c1)c1cccs1	1.7	i	0.4	-11.1	-5.3	x	x	-5.4	-4.6	0.1
CCCCNC(=O)Nc1cc(C)on1	x	x	x	x	x	1.4	0.75	9.7	2.2	0.5
COc1ccc(C(C#N)c2ccc(Cl)nn2)cc1 (centres undefined)	0.2	i	19.1	7.5	-1.8	2.8	0.641	-1.4	x	-0.3
CC1Sc2ccc(S(=O)(=O)CCC(=O)N3CCN(c4cccc(Cl)c4)CC3)cc2NC1=O (centres undefined)	4.1	i	8.8	12.6	5.5	2.0	0.641	-8.9	12.8	-0.9
COc1ccc(-c2nnc(SCCOc3cccc(C)c3)n2N)cc1	x	x	x	x	x	1.0	0.739	5.3	1.6	0.7
CN(Cc1ccccc1)C(=O)Cn1cccc1C(=O)c1ccccc1	x	x	x	x	x	4.6	0.702	-4.3	0.1	0.0
CC1CC(C)CN(C(=O)COc2cccnc2[N+](=O)[O-])C1 (centres undefined)	0.1	i	1.6	10.3	-1.2	0.9	0.705	x	-3.4	0.8
COc1cccc(C(=O)NCCNC(=O)c2ccccn2)c1	-1.1	i	0.8	5.6	-2.6	3.9	0.687	-0.8	-4.9	1.3
CCOC(=O)c1c(-c2ccccc2)csc1NC(=S)NC(=O)c1ccccc1	x	x	x	x	x	7.0	0.776	8.8	11.8	0.1

New compounds follow:
SMILES	MLL AF4-AF9 inh	FGF22 binding	Ecoli rRNA inh	Ecoli rRNA inh OD600	Ecoli rRNA inh RFP	UCH37 DUB inh	Ecoli growth	T cruzi repl	Beta apoptosis	A1 inh
COc1ccc(Cl)cc1NC(=O)CN(C)C(=O)Cc1ccc2c(c1)CCC2	-3.8	i	0.5	-9.7	-0.7	1.3	0.65	1.8	x	-0.5
Cc1noc(C)c1COC(=O)c1ccc(-c2nc3ccccc3s2)s1	x	x	x	x	x	-108.3	0.729	-1.7	-0.6	-11.9
CC1CCCC(C)N1C(=O)COC(=O)/C=C/c1ccc(Br)o1 (centres undefined)	-4.1	i	-4.0	-8.1	-1.5	6.4	0.71	x	-1.9	-1.1
CC1(c2ccccc2)NC(=O)N(CC(=O)Nc2ccc(S(=O)(=O)NC3=NCCCCC3)cc2)C1=O (centres undefined)	0.2	i	5.8	4.5	-1.8	3.9	0.674	x	x	x
COc1ccc(NC(=O)c2cc(C)nc3ccccc23)c(OC)c1	1.5	i	-5.2	-2.3	1.8	x	x	-8.3	-3.0	0.5
CCOc1ccc(S(=O)(=O)N2CCCC(C(=O)NCCN3CCOCC3)C2)cc1Cl (centres undefined)	0.1	i	8.0	9.0	1.9	1.0	0.651	14.7	-5.8	0.1
CC(=O)C(c1ccccc1)C(c1ccccc1)C(C)[N+](=O)[O-] (centres undefined)	-6.9	i	12.7	10.7	2.3	1.9	0.628	-2.1	-3.7	0.3
Cc1cc(C)nc(SC(C)C(=O)O)n1 (centres undefined)	x	x	x	x	x	5.9	0.695	4.9	-0.4	-0.2
CC(CS(=O)(=O)c1cccc2cccnc12)N1CCCCC1 (centres undefined)	x	x	x	x	x	-3.8	0.779	-57.4	-2.3	0.4
CC(C)(C)OC(=O)CNC(=O)c1nc[nH]c1C(=O)NCC(=O)OC(C)(C)C	x	i	4.9	16.2	-2.5	-0.1	0.715	3.3	-4.4	-1.0
COC(=O)c1ccc(CN2[C@H](C(=O)OC)C[C@@]3(O)[C@@H](O)[C@@H](O)[C@@H](O)C[C@@H]23)cc1	-4.0	i	-0.9	11.0	16.7	4.1	x	-26.2	-13.4	-0.1
